# ugtP null kill: growth inhibition of S. aureus ugtP deletion strain | actives 0.54% (n = 330,000) | growth inhibition, % (no concentration beside the values) | S. aureus RN4220 ugtP deletion, OD600 growth, 16 h; some inactives read as strong as hits | AID 1259309;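 active = z-score under -3 and OD600 up to 0.15 on both plates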;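 note: plate controls were untreated wells for no effect and antibiotic for full effect; wells of about 80 µL received 100 nL stock; the first replicate is given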
# Autofluor counter: counter-screen for toxin protease inhibitors: compound fluorescence; compound autofluorescence counterscreen, microsphere flow cytometry; hits give high values; actives 3.1% (n = 360,000); fluorescence intensity (concentration not given with the values);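 active = at least 3 SD above the mean of all compounds, about 16000 in these data; inconclusive = too few beads counted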;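 note: 100 nL of 1 mM stock went into each well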
# RN4220 kill: kills Staphylococcus aureus RN4220. S. aureus RN4220 growth, OD600, 16 h. inhibition, % (test concentration not listed). actives 0.33% (n = 330,000);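 active = z-score of -3 or lower and OD600 up to 0.18 on both plates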;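 note: plate controls were untreated cells for no effect and reference antibiotic for full effect; stock transfer was 100 nL into about 80 µL; one replicate is shown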
# PrP 5UTR inh: inhibition of PrP 5' UTR reporter expression; cell-based PrP 5' UTR mRNA reporter, plate reader; inhibition, % (no concentration beside the values); actives 0.35% (n = 340,000);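 active = every replicate at 50% or more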;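 note: 0 = median of the neutral control wells; tested in H4 reporter cells; numbers are from one replicate; inactives centre near -14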
# Mtb hypoxia rep: reduces hypoxia-regulated biosensor signal in M. tuberculosis; M. tuberculosis hypoxia-regulated fluorescent reporter, fluorescence; actives 0.1% (n = 300,000); AID 1159583; fluorescence inhibition, % (test concentration not listed);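 active = 35 to 45% if threefold the growth effect, above 45% if 1.5-fold the growth effect; inactive = the rest, general growth blockers included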;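 note: wells of about 50 µL received 100 nL stock; 0% = vehicle wells and 100% = reference inhibitor wells; whole bacteria with a GFP reporter of the hypoxia response; strong numbers were not always called active; many hits fall short of the cut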
# BJeLR viability: kills HRASV12-expressing BJeLR cells; BJeLR (HRASV12) viability, CellTiter-Glo ATP luminescence, 48 h; reference of the scale not given here; inhibition, % (no concentration beside the values); actives 0.17% (n = 300,000); AID 1554;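 active = replicate mean above 50%; inconclusive = above 50% but judged a plate artefact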;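 note: 50 nL library stock added to about 25 µL; numbers are from one replicate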
# Mtb hypoxia rep growth: also measured in Mtb hypoxia rep; calls as there; growth inhibition, %; measured here: M. tuberculosis growth (absorbance);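 0% = vehicle and 100% = reference antibiotic; read after six days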
# Active calls of the source: *; ? = inconclusive; . = not tested or not shown; & = joins results of further samples. An unsorted share of the library. Share with any hit: about 4%.
(1) Cc1sc2nc(CN3CCCCC3)nc(Cl)c2c1C
(2) CCCCCCCCCCCCCCCC[n+]1ccccc1
(3) Cn1c(/C(C#N)=C/C2CC=CCC2)nc2ccccc21 (stereo not given)
(4) COc1ccccc1C(=O)NC(CCSC)C(=O)N1CCN(C/C=C/c2ccccc2)CC1 (stereo not given)
(5) Cc1cc(C(=O)Nc2ccc3ccccc3c2)oc1C
(6) O=C(NCc1ccco1)c1ccc2nccnc2c1
(7) Cc1cccc(C(=O)OCC(=O)N2CC(C)OC(C)C2)c1C (stereo not given)
(8) Cc1ccc(CCNC(=O)CCn2ccc3cc(S(=O)(=O)N4CCCC4)ccc32)cc1
(9) Cn1cnnc1Sc1ccc(S(C)(=O)=O)cc1[N+](=O)[O-]
(10) O=C(Cc1ccccc1)Nc1ccc(NC(=O)c2cccs2)c(Cl)c1

entry no.,1,2,3,4,5,6,7,8,9,10
ugtP null kill,10,100*,-8,7,12,7,0,8,4,4
PrP 5UTR inh,-73,10&9,-43,-15,-71,-12,-2,-11,-2,-19
BJeLR viability,0,.,2,2,-13,7,0,-6,-1,-5
Autofluor counter,2599,6030&2952&4700,9810,?,5610,6101,3126,4320,3288,2155
Mtb hypoxia rep growth,5,11,4,-5,7,1,-6,-5,-7,4
Mtb hypoxia rep,13,14,5,0,6,12,4,6,-9,-3
RN4220 kill,2.8,100*,0.6,4.9,-0.7,3.7,0.9,5.3,8.8,2.1

(11) N#Cc1ccc(-c2ccc(OCC(=O)NN=Cc3ccncc3)cc2)cc1
(12) Cc1nnc(NC(=O)CSc2nccn2-c2ccc(F)cc2)s1
(13) CCOC(=O)c1sc2cccc(Cl)c2c1N
(14) O=C(CCCOc1ccc(Cl)cc1)NCCc1ccccc1
(15) O=C(c1cc(S(=O)(=O)N2CCCCC2)ccc1Cl)N1CCOCC1
(16) Cc1nc2ccccc2c2oc(C(=O)N3CCCC(C)C3)cc12 (stereo not given)
(17) COc1cc(Cl)c(S(=O)(=O)NCCCn2ccnc2)cc1Cl
(18) Cc1cc(-c2nnc(-c3cccc(C(F)(F)F)c3)o2)no1
(19) CCc1ccc(C(=O)Nc2cc(C)on2)o1
(20) C/C(=N\NC(=O)c1cccnc1)c1cccc([N+](=O)[O-])c1

entry no.,11,12,13,14,15,16,17,18,19,20
ugtP null kill,7,8,16,0,0,-3,17,0,-1,.
PrP 5UTR inh,-15,-25,-9,-9,-15,-3,-21,-56,-21,-9
BJeLR viability,.,0,1,-12,0,2,-2,-16,-4,-4
Autofluor counter,3993,5306,4672,3824,4583,5494,2822,4530,3855,3204
Mtb hypoxia rep growth,8,8,5,3,1,5,-2,12,10,.
Mtb hypoxia rep,17,21,3,15,4,9,7,5,-4,.
RN4220 kill,16,4.2,16,6.6,3.0,2.6,3.6,7.1,3.1,.

(21) CC(SCc1ccccc1)C(=O)NN=Cc1ccc(OCC(=O)NCc2ccco2)cc1 (stereo not given)
(22) CN1CCc2cc3c(c4c2C1Cc1ccccc1-4)OCO3 (stereo not given)
(23) CCOc1ccc(N2CC(O)Cn3c2nc2c3c(=O)n(CCCc3ccccc3)c(=O)n2C)cc1 (stereo not given)
(24) Nc1nnc(CC(=O)NN=Cc2cccc([N+](=O)[O-])c2)s1
(25) O=C(Nc1cccc(Cl)c1)c1cc([N+](=O)[O-])ccc1N1CCN(CCO)CC1
(26) COc1ccc(NC(=O)Oc2ccccc2)cc1Cl
(27) Cc1ccc(-c2cc(C(=O)NN=Cc3cnn(C)c3C)c3ccccc3n2)cc1C
(28) Cc1cc(-c2ccccc2)c(C#N)c(SCC(N)=O)n1
(29) CCN(C[C@H]1N[C@@](Cc2ccccc2)(C(=O)OC)[C@H]2C(=O)N(C)C(=O)[C@@H]12)C(C)=O
(30) CC(=O)Nc1ccc(NC(=O)CSc2ncnn2-c2ccccc2)cc1

entry no.,21,22,23,24,25,26,27,28,29,30
ugtP null kill,8,.,-2,-3,-2,15,-6,13,11,0
PrP 5UTR inh,.,-13,-9,.,-4,-27,.,-30,-6,-20
BJeLR viability,.,0,1,.,1,2,.,9,.,5
Autofluor counter,.,3822,3850,.,4523,3454,.,4111,3206,4373
Mtb hypoxia rep growth,-1,.,10,5,13,13,7,.,4,.
Mtb hypoxia rep,6,.,19,2,2,14,9,.,2,.
RN4220 kill,2.7,.,-15,-18,4.2,2.9,2.3,-0.5,2.0,0.3

# Taken from above.
# `CN1CCc2cc3c(c4c2C1Cc1ccccc1-4)OCO3` (stereo not given) in BJeLR viability has 0
# `CC(=O)Nc1ccc(NC(=O)CSc2ncnn2-c2ccccc2)cc1` in ugtP null kill has 0
# `CC(SCc1ccccc1)C(=O)NN=Cc1ccc(OCC(=O)NCc2ccco2)cc1` (stereo not given) in Mtb hypoxia rep has 6
# `CCN(C[C@H]1N[C@@](Cc2ccccc2)(C(=O)OC)[C@H]2C(=O)N(C)C(=O)[C@@H]12)C(C)=O` in ugtP null kill has 11
# `Cc1ccc(-c2cc(C(=O)NN=Cc3cnn(C)c3C)c3ccccc3n2)cc1C` in Mtb hypoxia rep has 9

# The listing continues:
(31) CCOC(=O)N1CCN(C(=O)C2CC(=O)N(Cc3ccc(OC)cc3)C2)CC1 (stereo not given)
(32) Cc1nc2c(C(=O)O)cnn2c(C)c1Cc1ccccc1F
(33) CCC(NC(=O)CC[C@H]1O[C@@H](n2cc(C)c(=O)[nH]c2=O)C[C@@H]1O)c1ccccc1 (stereo not given in full)
(34) O=S(=O)(Nc1ccc2c(c1)OCCO2)c1cccc2cccnc12
(35) Cc1nnc(SCC(=O)N2c3ccccc3C(C)(c3ccc(Cl)cc3)CC2(C)C)s1 (stereo not given)
(36) COc1ccc(NC(=O)CSCc2cc(=O)n3cc(C)sc3n2)cc1
(37) Brc1ccc(/C=N/Nc2ccccc2)cc1
(38) Cc1ccc(S(=O)(=O)Nc2ccccc2F)cc1C(=O)NNC(=O)c1csc(N2CCOCC2)n1
(39) Cc1cccc(CSc2nnc(Cn3c(=O)sc4ccccc43)n2C)c1
(40) CCOc1ccc2nc(NC(=O)CCC(=O)c3cccs3)sc2c1

entry no.,31,32,33,34,35,36,37,38,39,40
ugtP null kill,-2,-4,4,5,8,13,.,2,-2,-5
PrP 5UTR inh,-8,-11,-8,.,-18,-14,-56,-15,-10,-122
BJeLR viability,8,-3,.,5,13,0,-6,3,-8,.
Autofluor counter,2816,19848*,3780,11234,7857,4061,2456,4579,4285,2818
Mtb hypoxia rep growth,7,2,-1,6,12,-3,.,-6,.,-14
Mtb hypoxia rep,-7,2,-11,5,4,2,.,6,.,-18
RN4220 kill,3.1,8.7,3.7,4.3,-7.8,5.1,.,0.5,4.3,2.1

(41) O=C(COC(=O)Cc1ccccc1)Nc1cc(S(=O)(=O)N2CCOCC2)ccc1N1CCCC1
(42) COc1ccc2c(c1)OCC1C2N2C(=O)c3cc(OC)ccc3NC(=O)[C@@]2(C)C1c1ccccc1 (stereo not given in full)
(43) O=C(CSc1nnc(-c2cccnc2)n1C1CCCCC1)NC1CCCC1
(44) COCCn1nnnc1C(c1cc2cc(C)ccc2[nH]c1=O)N1CCN(C2CCCCC2)CC1 (stereo not given)
(45) CN(CC(=O)Nc1ccc(F)c(F)c1F)C(=O)C1CCCCC1
(46) N#Cc1cc(-c2ccccc2)nnc1Sc1ccc(F)cc1
(47) CC(C)c1ccc(NC(=O)Nc2cnccn2)cc1
(48) COc1ccc(/C=C/CN2CCN(CCc3ccccc3)C(CCO)C2)cc1 (stereo not given)
(49) COc1ccccc1NS(=O)(=O)c1ccc2oc(SC3CCOC3=O)nc2c1 (stereo not given)
(50) COc1ccccc1OCC(=O)NCC1CCCN(C(=O)c2ccccc2C(C)=O)C1 (stereo not given)

entry no.,41,42,43,44,45,46,47,48,49,50
ugtP null kill,9,-4,-7,4,5,12,1,3,-7,-4
PrP 5UTR inh,-22,.,-12,-5,.,-27,-101,-10,-7,-7
BJeLR viability,-1,.,-16,-5,.,-6,23,-7,5,2
Autofluor counter,2687,.,11390,8497,?,2871,6319,4081,3127,5782
Mtb hypoxia rep growth,5,16,1,3,14,.,-7,5,0,4
Mtb hypoxia rep,6,-2,-7,2,8,.,6,8,-2,9
RN4220 kill,3.2,-1.2,-1.5,6.6,1.2,3.0,3.1,3.9,8.5,2.4

(51) COc1ccc(NC(=O)CC(C)C)c(OC)c1
(52) Cc1cc(/C(N)=N/OC(=O)c2ccc(Cl)cc2)no1
(53) COc1cc(C(=O)N(C)CC(=O)Nc2cccc(F)c2)ccc1OCc1ccccc1
(54) Cc1c(NC(=O)COC(=O)c2ccc(S(=O)(=O)N3CCOCC3)cc2)c(=O)n(-c2ccccc2)n1C
(55) CCOC(=O)C(=O)Nc1nnc(Cc2ccc(OC)c(OC)c2)s1
(56) O=C(CC1CCC1)Nc1cccc2c([N+](=O)[O-])cccc12
(57) C=CCOc1ccc(/C=C2/C(=O)ON=C2C)cc1OCC
(58) O=C(CC(=O)c1ccccc1O)c1cccc(F)c1
(59) Oc1ccc(Cl)cc1CNCc1ccc(F)c(F)c1
(60) CC1(C)CC(=O)C=C(Nc2ccc(Cl)c(Br)c2)C1

entry no.,51,52,53,54,55,56,57,58,59,60
ugtP null kill,0,-3,5,-63,-7,-1,1,96*,0,-2
PrP 5UTR inh,13,-138,-6,-13,-14,.,2,-14,-10,-13
BJeLR viability,-8,3,-11,-3,-2,-8,2,-2,.,-3
Autofluor counter,2577,4093,.,5127,2824,3518,3714,2042,2975,4073
Mtb hypoxia rep growth,.,3,-5,9,1,1,4,.,.,-16
Mtb hypoxia rep,.,-10,-3,16,3,5,11,.,.,-3
RN4220 kill,-0.1,-3.2,0.7,9.9,4.4,-1.4,2.6,79,4.2,-4.3

(61) COC(=O)c1ccc(C2C(C(=O)Nc3ccccc3C)=C(C)Nc3ncnn32)cc1 (stereo not given)
(62) Cc1ccc(C)c(S(=O)(=O)c2c(C)cc(C)[nH]c2=O)c1
(63) O=C(COC(=O)CSc1ccccc1)Nc1ccc(F)cc1F
(64) O=C1CCc2ccccc2N1Cc1ccccc1
(65) Cc1cc(N2CCCc3ccccc32)n2ncnc2n1
(66) CC(CC(=O)NC1CCCCC1)S(=O)(=O)c1ccc2c(c1)NC(=O)CO2 (stereo not given)
(67) NC1=NC(=O)/C(=C/c2ccsc2)S1
(68) O=C(CSC(=S)N1CCCCC1)Nc1nc(-c2ccccc2)c(-c2ccccc2)o1
(69) COc1ccc(/C=C/C(=O)N(C)CC(=O)Nc2cccc(F)c2)cc1S(=O)(=O)N1CCCCC1
(70) O=C(O)CCCC(=O)N1CCc2cc(S(=O)(=O)N3CCc4ccccc43)ccc21

entry no.,61,62,63,64,65,66,67,68,69,70
ugtP null kill,6,3,-1,22,3,2,2,-1,10,-6
PrP 5UTR inh,-15,-27,-21,.,-9,-17,-25,-93,-15,6
BJeLR viability,-4,-2,.,-1,6,-1,2,0,.,0
Autofluor counter,2389,3309,4113,3670,5503,5695,4307,21247*,5549,5427
Mtb hypoxia rep growth,0,-1,14,13,.,8,3,-4,-4,-4
Mtb hypoxia rep,-2,4,6,11,.,1,-3,-2,-3,-4
RN4220 kill,-4.2,3.8,1.2,6.0,-1.4,1.3,-4.3,1.6,1.1,9.5

(71) O=C(COc1ccc(Br)cc1F)NC1CC1
(72) Cc1noc(/C=C/N(C)C)c1S(=O)(=O)N1CCCC(C(=O)NCc2ccccc2Cl)C1 (stereo not given)
(73) Cc1ccc(C)c(OCCC(=O)OCC(=O)Nc2ccc(N3CCOCC3)cc2)c1
(74) COc1cc(CCC(=O)N2CCN(c3cccc(C)c3C)CC2)cc(OC)c1OC
(75) Cc1ccc(C(=O)NC(=S)N2CCCC2)cc1
(76) C=C(C)c1cccc(C(C)(C)NC(=O)Nc2cc(C)ccn2)c1

entry no.,71,72,73,74,75,76
ugtP null kill,3,-3,-2,4,0,-1
PrP 5UTR inh,-21,0,8,8,-15,-36
BJeLR viability,.,2,1,14,-2,8
Autofluor counter,3440,9358,5896,3398,5442,8424
Mtb hypoxia rep growth,10,8,1,0,0,6
Mtb hypoxia rep,13,2,-6,1,3,3
RN4220 kill,7.2,-2.7,-2.2,0.4,2.2,2.8

# Some entries already given, showing only Mtb hypoxia rep growth, BJeLR viability and Mtb hypoxia rep:
nr	canonical_smiles	Mtb hypoxia rep growth	BJeLR viability	Mtb hypoxia rep
73	Cc1ccc(C)c(OCCC(=O)OCC(=O)Nc2ccc(N3CCOCC3)cc2)c1	1	1	-6
72	Cc1noc(/C=C/N(C)C)c1S(=O)(=O)N1CCCC(C(=O)NCc2ccccc2Cl)C1 (stereo not given)	8	2	2
